# Screening results as filed in PubChem BioAssay.
# KCNQ2 pot: KCNQ2 (rat) channel potentiation. B-score at 10 µM. CHO-K1 KCNQ2, FluxOR thallium flux fluorescence; hits give high values. hit rate 0.54% among 310,000. O88943;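 active = fluorescence ratio B-score at least 3 SD of library B-scores, with initial fluorescence B-score within 3 SD, cut at about 5.3 in these data; same plate scores as AID 2156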;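 also: B-score of peak minus minimum over baseline fluorescence ratio after K+ and Tl+ stimulus; positive B-score means potentiation of KCNQ2 with more thallium influx and brighter signal; only the inactives scoring about 0 or higher are listed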
# Target sequence (O88943 whole entry, looked up): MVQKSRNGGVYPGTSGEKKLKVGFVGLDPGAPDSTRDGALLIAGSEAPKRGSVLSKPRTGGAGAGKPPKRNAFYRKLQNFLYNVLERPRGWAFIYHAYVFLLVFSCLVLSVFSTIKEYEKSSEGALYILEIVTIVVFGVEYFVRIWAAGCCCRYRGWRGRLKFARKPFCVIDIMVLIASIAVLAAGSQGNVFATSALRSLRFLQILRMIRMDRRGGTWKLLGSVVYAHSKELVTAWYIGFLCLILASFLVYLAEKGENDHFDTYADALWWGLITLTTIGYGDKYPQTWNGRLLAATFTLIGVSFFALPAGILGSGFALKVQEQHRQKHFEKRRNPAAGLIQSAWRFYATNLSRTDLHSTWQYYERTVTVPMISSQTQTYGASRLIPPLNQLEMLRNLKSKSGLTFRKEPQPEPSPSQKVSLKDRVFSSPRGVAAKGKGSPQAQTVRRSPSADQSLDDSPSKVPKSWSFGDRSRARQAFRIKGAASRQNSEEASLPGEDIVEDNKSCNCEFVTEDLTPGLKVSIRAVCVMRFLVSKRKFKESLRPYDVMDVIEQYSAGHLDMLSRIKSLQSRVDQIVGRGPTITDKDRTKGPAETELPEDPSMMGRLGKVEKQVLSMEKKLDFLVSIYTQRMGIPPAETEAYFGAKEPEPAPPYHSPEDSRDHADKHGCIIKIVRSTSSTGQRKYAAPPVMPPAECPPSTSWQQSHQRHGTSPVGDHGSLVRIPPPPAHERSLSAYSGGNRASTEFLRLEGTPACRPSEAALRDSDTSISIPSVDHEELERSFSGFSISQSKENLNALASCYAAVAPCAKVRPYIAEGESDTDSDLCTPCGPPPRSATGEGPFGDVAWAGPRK
# KCNQ2 pot baseline: second read-out of KCNQ2 pot, no call of its own (marks repeat the call); B-score; compound at 10 µM; measured here: initial fluorescence intensity artifact check;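 brightness before thallium and not channel activity; 0 = typical well and far values either way flag optical interference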
# Active calls of the source: *; · = not tested or not shown.
KCNQ2 pot baseline	KCNQ2 pot	SMILES
-1	0.57	CCOC(=O)C/C(C)=N/NC(=O)CNc1cccc(Cl)c1C
-0.48	0.41	Cc1ccc(C(=O)C2=C(O)C(=O)N(Cc3cccnc3)C2c2cccc(Oc3ccccc3)c2)o1 (stereo not given)
-0.25	1.5	COc1ccc(-c2nc(CSCC(=O)NCC3CCCO3)c(C)o2)cc1OC (stereo not given)
0.16	0.34	CC(C)OCCCNC(=O)c1ccc2c(c1)ncn2C1CCCC1
-1	0.1	COc1ccc(NC(=O)CSCC(=O)N(C)Cc2c(F)cccc2Cl)cc1
0.45	0.73	Cc1ccc(N(C(=O)c2ccc3c(c2)OCO3)C2C=CS(=O)(=O)C2)cc1C (stereo not given)
-0.19	0.32	O=C(/C=C/c1ccccc1)Nn1cnnc1
1.6	0.88	COc1ccc(N2C(=O)CC(S/C(N)=N/N=C(\C)c3cccs3)C2=O)cc1 (stereo not given)
0.17	1.4	O=C1OC(NC(=O)c2ccccc2)C(n2cc(CO)nn2)=C1Cl (stereo not given)
-0.88	0.93	O=C(O)CSc1nnc(-c2ccc(Cl)cc2Cl)n1-c1ccc(Cl)cc1
-0.52	1.2	Cc1ccc(Cn2c(SCC(C)C)nc3c2c(=O)n(C)c(=O)n3C)cc1
0.25	1.1	CC1CC(C)CN(c2ccc([N+](=O)[O-])nc2)C1 (stereo not given)
-0.51	0.02	Cc1cnc(NC(=O)c2cc3c(C)nn(-c4ccccc4)c3s2)s1
0.54	0.38	CCCn1c(SCC(=O)NCCc2ccccc2)nnc1-c1ccccn1
0.14	1.8	c1ccc2[nH]c(-c3ccc4c(c3)OCO4)nc2c1
0.53	0.3	COc1cc(/C=C2\SC(=O)NC2=O)ccc1Oc1cnccn1
-1.2	0.25	O=C(NCCO)C1CCN(S(=O)(=O)c2ccc(F)cc2)CC1
0.28	0.88	O=C(Cn1ccc(C(F)(F)F)n1)N/N=C/c1ccc2c(c1)OCO2
1.8	0.28	CC1CCCCC1NC(=O)C1CCN(C(=O)c2sccc2-n2cccc2)CC1 (stereo not given)
-1.5	0.13	CCCn1c(SCC(=O)NCCc2ccccc2)nnc1-c1cccnc1
-0.5	1.3	O=C(Nc1nccs1)c1ccc(Br)o1
0.42	0.08	Cc1ccc(NC(=O)Cn2c(=O)c3cccn3c3ccccc32)cc1
0.63	1.6	CS(=O)(=O)N1CCN(c2ccc(NC(=O)CSc3ccc(Cl)cc3)cc2)CC1
0.54	1.8	CCCN(CCC)CCCNC(=O)c1cc2c(-c3ccc(OC)c(OC)c3)nn(C)c2s1
-0.05	0.68	COc1ccc(/C=N/OCC(=O)Nc2ccc3c(c2)OCO3)c(OC)c1

# Compounds shown so far containing an aryl thioether with sulfur outside any ring:
KCNQ2 pot baseline	KCNQ2 pot	SMILES
-0.88	0.93	O=C(O)CSc1nnc(-c2ccc(Cl)cc2Cl)n1-c1ccc(Cl)cc1
-0.52	1.2	Cc1ccc(Cn2c(SCC(C)C)nc3c2c(=O)n(C)c(=O)n3C)cc1
0.54	0.38	CCCn1c(SCC(=O)NCCc2ccccc2)nnc1-c1ccccn1
-1.5	0.13	CCCn1c(SCC(=O)NCCc2ccccc2)nnc1-c1cccnc1
0.63	1.6	CS(=O)(=O)N1CCN(c2ccc(NC(=O)CSc3ccc(Cl)cc3)cc2)CC1

# Additional compounds.
KCNQ2 pot baseline	KCNQ2 pot	SMILES
1.7	0.14	Cc1ccc(C(=O)NC2CCN(CC(=O)NC3CCC(C)CC3)CC2)cc1 (stereo not given)
-0.15	0.66	O=C1NC(=Nc2cccc([N+](=O)[O-])c2)SC1(CO)CO
1.5	3.2	Cc1ccc(Cc2cnc(NC(=O)c3cccs3)s2)cc1
0.06	0.67	Cc1ccc(S(=O)(=O)N2CCN(C(=O)CC3CCCC3)CC2)cc1
·	-5.6	CCOC(=O)C1=C(c2ccccc2)N(C)C(=O)NC1c1ccc(OC(F)F)c(OC)c1 (stereo not given)
0.05	0.12	C=CCc1c(C)nc2c(OC)cccc2c1Cl
0.67	1.1	O=C(Nc1ccccc1Cl)c1ccccc1S(=O)(=O)c1ccccc1[N+](=O)[O-]
0.82	0.12	O=C(OC(C(=O)NCc1ccc2c(c1)OCO2)c1ccncc1)c1ccc(Cl)nc1 (stereo not given)
1	1.3	O=c1c(-c2ccccc2)n[nH]c2ccccc12
0.85	0.39	CCn1c(Cc2ccccc2)nnc1SCc1nc2ccccc2c(=O)[nH]1
-1.7	0.51	O=C(O)COc1ccc(/C=N/NC(=O)C(O)(c2ccccc2)c2ccccc2)cc1
0	0.53	COc1cc(/C=N/NC(=O)c2sc(N)c(C#N)c2C)ccc1O
-0.69	0.78	Cc1ccc(S(=O)(=O)NCCC(=O)OCC(=O)NCCc2ccccc2)cc1C
0.36*	5.3*	Nc1c(-c2ccccc2Cl)cnn1-c1cccc([N+](=O)[O-])c1
-0.32	0.51	O=C(CCc1nnc(Cc2c[nH]c3ccccc23)o1)NCC1CC12CCCCC2 (stereo not given)
0.88	0.47	COc1ccc(C)cc1NC(=O)NCc1ccccn1
-0.44	0.61	Nc1nc(-c2ccccc2)cc(-c2ccccc2O)n1
0.05	0.5	Cc1cccc(C)c1NC(=O)CSc1nnc(NC(=O)C2CC2)s1
-1.7	0.4	CCOC(=O)c1ccc(NC(=O)CCNC(=O)c2ccc([N+](=O)[O-])cc2)cc1
0.06	1.7	CCOC(=O)c1sc(N)c(C(=O)OCC)c1C
-2.1	0.69	O=C(Nc1ccccc1O)/C(=C\c1ccccc1)NC(=O)c1ccccc1
1.2	0.11	COc1cc2ccc(=O)oc2c(CC=C(C)C)c1OC
1.9	0.48	CCOc1ccc2ccccc2c1C(=O)N1CCOCC1
0.19	1.4	Cc1cc(C)n2nc(C(=O)OCC(=O)N3CCC3)nc2n1
0.47	0.83	Cc1ccc(CN2CCNC(=O)C2CC(=O)NC2CCCCCC2)o1 (stereo not given)
1.1	1.9	C/C(CC(=O)NC1C2CC3CC(C2)CC1C3)=N\NC(=O)Cc1cccs1 (stereo not given)
0.45	0.74	COc1cc(/C=N/NC(=O)c2sc3ccccc3c2Cl)ccc1OC(=O)c1ccc([N+](=O)[O-])cc1
-2	0.16	O=C(N/N=C/c1ccc(F)cc1)c1ccccc1
-0.98	1.1	COc1ccc(CNC(=O)CN(C(=O)c2csnn2)c2ccc(C(C)=O)cc2)cc1
1.4	0.14	O=C1CC2(CCCCCC2)Oc2ccc(Cl)cc21
0.4	1.7	CCC1Sc2ccc(S(=O)(=O)CCC(=O)Nc3cc(C)ccn3)cc2NC1=O (stereo not given)
0.75	2.9	NC(=O)C(c1ccc(Br)cc1)c1ccc(C(=O)c2ccccc2)cc1 (stereo not given)
0.36	0.23	COc1ccc(N2CCN(C(=O)C3CCCN(S(=O)(=O)c4ccc(C)cc4)C3)CC2)cc1 (stereo not given)
1.9	1.6	COc1ccc(CCNC(=O)c2ccc(N3CCCCS3(=O)=O)cc2)cc1OC
1.2	0.5	COc1ccc(S(=O)(=O)Nc2ccccc2C(F)(F)F)cc1
0.27	1.2	CCCCCCSc1nc2c(c(=O)[nH]c(=O)n2C)n1C
0.13	0.96	COc1cc(Nc2ccc(S(=O)(=O)N3CCN(C)CC3)cc2[N+](=O)[O-])cc(OC)c1
0.75	0.86	O=C(NCc1ccc2c(c1)OCO2)C1CCC(CNS(=O)(=O)c2cccc3nsnc23)CC1 (stereo not given)
-0.99	1.1	Cc1sc2ncnc(SC(C)C#N)c2c1C (stereo not given)
-2.4	1.2	N#CCCN(C(=O)Nc1ccc(Cl)cc1)c1ccccc1
0.05	0.49	COc1cccc(-c2cc(C(F)(F)F)n3nc(C(=O)Nc4c(C)n(C)n(-c5ccccc5)c4=O)cc3n2)c1
0.41	0.39	Fc1ccc(CSc2ccc(-c3ccco3)nn2)cc1
-1.1	1	CC(=O)c1cccc(OCC(O)CNCC2COc3ccccc3O2)c1 (stereo not given)
0.52	1.1	Cc1ccc(C(=O)N2CCC(N3CCC(C(=O)N4CCOCC4)CC3)CC2)cc1C
1.6	0.1	COc1ccc(CCNc2nc(C)cc(C)n2)cc1OC
-0.31	1.9	CCC(C)NC(=O)c1oc2ccc(S(=O)(=O)N3CCC4(CC3)OCCO4)cc2c1C (stereo not given)
0.89	0.66	COc1ccccc1CNC(=O)C1CCN(S(=O)(=O)c2cccc([N+](=O)[O-])c2)CC1
0.43	0.43	Cc1cnc(CNC(=O)C2CCC(=O)N(Cc3ccc(Cl)cc3)C2)[nH]1 (stereo not given)
-0.58	0.43	COc1ccccc1OCCCN1C(=O)C(=O)c2cccc(C)c21
-0.04	0.78	N#CCCn1cc(C(=O)Nc2ccc(C(=O)O)cc2)c(-c2cccc(Br)c2)n1

# In a second layout: results already given.
Molecule	KCNQ2 pot baseline	KCNQ2 pot
NC(=O)C(c1ccc(Br)cc1)c1ccc(C(=O)c2ccccc2)cc1 (stereo not given)	0.75	2.9
COc1ccc(N2CCN(C(=O)C3CCCN(S(=O)(=O)c4ccc(C)cc4)C3)CC2)cc1 (stereo not given)	0.36	0.23
COc1ccc(CCNC(=O)c2ccc(N3CCCCS3(=O)=O)cc2)cc1OC	1.9	1.6
COc1ccc(S(=O)(=O)Nc2ccccc2C(F)(F)F)cc1	1.2	0.5
CCCCCCSc1nc2c(c(=O)[nH]c(=O)n2C)n1C	0.27	1.2

# The results go on.
KCNQ2 pot baseline	KCNQ2 pot	SMILES
0.59	0.24	O=C1Nc2ccc(Cl)cc2[C@@](C#CC2CC2)(C(F)(F)F)O1
0.9	0.34	CCN(CC)S(=O)(=O)c1cc(C(=O)Nc2cc(C)[nH]n2)ccc1Cl
0.12	3.9	CCCNC(=S)Nc1ccc(Oc2ccccc2)cc1
-0.89	0.01	O=C(CCCN1C(=O)/C(=C\c2cccs2)SC1=S)NNC(=O)c1cccnc1
-1.8	0.68	O=C(c1ccccc1)c1ccc(OC(=O)N2CCOCC2)cc1
0.47	0.93	CC(C)CNC(=O)NC(=O)COC(=O)c1ccccc1Sc1ccc(C(F)(F)F)cc1[N+](=O)[O-]
0.83	0.5	Cc1ccc(S(=O)(=O)N2CCCC2C(=O)Nn2cnnc2)cc1 (stereo not given)
-1.2	1.4	Cc1ccc(-c2cc(=O)c3cc(Cl)ccc3[nH]2)cc1
0.51	1.9	O=C(Nc1nc(-c2ccc3ccccc3c2)cs1)c1ccc(N2C(=O)CCC2=O)cc1
0.04	0.4	COCCCNC(=O)C(=O)Nc1ccc2c(c1)N(S(=O)(=O)c1cccs1)CCC2
2.2	0.58	Cn1ccnc1SCC(=O)NC1CCCCC1
-2	1.5	COc1ccccc1CC(=O)Nc1cccc(C(=O)NN2C(=O)c3ccccc3C2=O)c1
-1.6	1.5	COc1ccc(N=Cc2cc(Cc3ccccc3Cl)cc([N+](=O)[O-])c2O)cc1OC
-3.1	4.8	O=C(NNC1=C(C(=O)C(F)(F)F)CCC1)c1cccc(Cl)c1
0.47	0.95	CCCCCC(=O)Nc1cc(S(=O)(=O)N2CCOCC2)ccc1N1CCN(C)CC1
0.04	0.69	COc1ccc(CN2CCc3ccccc3C2)cc1Br
-1.7	0.18	COCCOC(=O)C1=C(C)NC2(O)c3ccccc3C(=O)C12O (stereo not given)
-2.7	0.94	COc1ccc2c(=O)c(-c3cnn(-c4ccccc4)c3)c(C)oc2c1
-1.1	0.4	O=C(COC(=O)C1CC1)NC(=O)NCc1ccccc1
1	0.88	C/C(=N\OCC(=O)NC(C)C)c1cccs1
0.04	2	COCCCNC(=O)/C(C#N)=C/c1c(N2CCN(C)CC2)nc2c(C)cccn2c1=O
1	1.1	COCCCNC(=O)/C(C#N)=C/c1cc(C)[nH]c1C
0.17	1.2	CC(=O)c1ccc(S(=O)(=O)N2CCN(c3ccccc3F)CC2)cc1
1.2	0.29	COc1ccc(C(=O)N2CCC(C(=O)c3ccc(F)cc3)CC2)cc1
-1.1	0.28	CCOc1ccc(NC(=O)C(=O)NCCN2CCN(S(=O)(=O)c3ccccc3)CC2)cc1
1.3	0.01	CN(Cc1ccccc1)S(=O)(=O)c1ccc(Cl)c(C(=O)NCCCN2CCOCC2)c1
-0.4	0.05	N#Cc1cccc(NC(=S)Nc2ccccc2)c1
-0.51	0.58	CC(C)(C)c1nnc(NC(=O)Nc2ccc(Cl)cc2)s1
-1.5	0.61	O=C(NCCc1ccccn1)c1nc(Cn2cc([N+](=O)[O-])cn2)no1
0.47	0.74	COC(=O)C1=C(C)N(CC2CC2)C(=NCCN2CCOCC2)N[C@H]1c1ccccc1
2.2	0.51	CCOc1ccc(NC(=O)COC(=O)c2ncc(Cl)c(Cl)c2Cl)cc1
-0.06	1.7	O=C(COC(=O)CC1CC2CCC1C2)NC(=O)NC1CCCC1 (stereo not given)
0.54	0.68	COc1ccc(C)cc1Nc1nc(-c2ccccc2O)nc2ccccc12
3.5	0.65	COc1ccccc1N1CCN(C(c2cccs2)C(C)NC(=O)C(=O)N2CCCCC2)CC1 (stereo not given)
0.94*	5.5*	COc1ccc(NC(=O)CCCc2ccccc2)c(OC)c1
-1.1	1.6	COc1ccc(NC(=O)NCCCN2CCc3ccccc3C2)cc1
-1.8	2	CCOC(=O)C1CCN(C(=O)Nc2cccc(Cl)c2)CC1
-0.57	0.71	Cc1cc(C(=O)Nc2ccc(S(=O)(=O)N3CCCC3)cc2)no1
0.84	0.27	COc1ccc(CN2CCN(CCCc3ccccc3)C(CCO)C2)c(OC)c1 (stereo not given)
-0.57	0.2	CC(=O)Cn1c(N2CCC(Cc3ccccc3)CC2)nc2c1c(=O)[nH]c(=O)n2C
1.5	0.28	COC(=O)c1ccc(Cl)c(NC(=O)CN(c2ccc(OC)c(OC)c2)S(C)(=O)=O)c1
1.1*	6.3*	CCc1ccc(C(=O)CSc2n[nH]c(-c3ccncc3)n2)cc1
2.8	0.09	O=C(Oc1ccccc1-c1nnco1)c1ccc(Cl)cc1

# The list is partial; rates above refer to the full screens.
